From PubChem BioAssay
Polio RdRp inh = poliovirus RNA polymerase inhibition | % elongation, % (compound at 16.7 µg/mL) | AID 588519 | P03300 | actives 0.66% (n = 150,000) | poliovirus polymerase elongation, fluorescence polarization; stronger effect = lower value; in the data active = % elongation below about 90%; note: some results filed as inactive read as strong as hits
Mtb MenB inh = inhibitors of Mycobacterium tuberculosis MenB enzyme. P9WNP5. MenB enzyme assay, absorbance read-out; some hits fall short of the stated cut. inhibition, %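 (about 12 µg/mL by stock and volumes)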. actives 0.43% (n = 100,000);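 active = mean of two replicates above 30%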;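 note: 0% = no compound and 100% = wells with inactive enzyme; the first replicate is given; strong numbers were not always called active; inactives centre near -10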
Target sequence (P9WNP5 whole entry, looked up): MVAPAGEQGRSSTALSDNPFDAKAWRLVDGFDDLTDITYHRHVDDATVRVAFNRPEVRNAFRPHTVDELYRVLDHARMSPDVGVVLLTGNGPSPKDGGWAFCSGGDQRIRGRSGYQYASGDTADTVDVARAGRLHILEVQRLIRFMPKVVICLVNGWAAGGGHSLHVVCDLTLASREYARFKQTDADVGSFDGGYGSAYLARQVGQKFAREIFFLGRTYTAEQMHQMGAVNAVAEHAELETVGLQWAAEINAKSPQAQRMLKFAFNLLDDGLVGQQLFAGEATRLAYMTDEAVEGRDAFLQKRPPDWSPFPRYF
Mtb MbtI inh = MbtI salicylate synthase inhibition; P9WFX0; purified MbtI enzyme, fluorescence intensity read-out; inhibition, %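 (about 17 µg/mL by stock and volumes)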; actives 0.89% (n = 100,000); AID 493033;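 active = above 50% in both replicates, above 80% if mildly self-fluorescent; inactive = the rest, strongly fluorescent compounds included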;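 note: 0% = mean of negative and 100% = mean of positive controls; one replicate is shown; some compounds called inactive have numbers as strong as hits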
Target sequence (P9WFX0 whole entry, looked up): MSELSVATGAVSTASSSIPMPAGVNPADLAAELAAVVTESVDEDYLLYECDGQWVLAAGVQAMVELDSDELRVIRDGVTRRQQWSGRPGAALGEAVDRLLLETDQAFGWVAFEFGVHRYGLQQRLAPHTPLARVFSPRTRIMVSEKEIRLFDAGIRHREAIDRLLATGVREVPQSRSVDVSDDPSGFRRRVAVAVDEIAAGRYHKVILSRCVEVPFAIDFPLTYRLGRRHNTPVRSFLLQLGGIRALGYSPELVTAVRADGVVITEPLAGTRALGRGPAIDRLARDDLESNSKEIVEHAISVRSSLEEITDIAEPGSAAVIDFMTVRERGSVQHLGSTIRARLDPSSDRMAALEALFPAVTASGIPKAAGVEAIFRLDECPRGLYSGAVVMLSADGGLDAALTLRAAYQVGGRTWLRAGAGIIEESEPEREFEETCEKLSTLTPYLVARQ
Polio RdRp inh intensity = recorded beside Polio RdRp inh, whose call it bears; % elongation; measured here: total intensity read-out; formula for this scale not given here;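 total fluorescence in place of polarization; lower means less elongation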
An asterisk follows results filed as active; i = inactive; · = not tested or not shown; & = joins results of further samples.

SMILES,Mtb MbtI inh,Mtb MenB inh,Polio RdRp inh intensity,Polio RdRp inh
Cc1ccc(S(=O)(=O)N2CCC[C@H]2C(=O)OCC(=O)N2CCc3ccccc32)cc1,0,-7,103,108
Nc1ccc2c(c1)C1(OCCO1)C(=O)N2,-4,-74,105,103
CC(C)CN(C(=O)C1COc2ccccc2O1)c1c(N)n(CC(C)C)c(=O)[nH]c1=O (configuration not stated),14,3,96,101
CCC(C(=O)NCc1ccc(OC)cc1OC)N1C(=O)CSc2ccc(C(C)(C)C)cc21 (configuration not stated),1,-18,97,100
Cc1cccc(C(C)C)c1NC(=O)CSc1ncnc2[nH]ncc12,2,-5,106,105
CC(Oc1ccc(-c2ccccc2)cc1)c1nnc(-c2cccs2)o1 (configuration not stated),-2,-25,107,104
CC1(C)OC(=O)C(=CNCCO)C(=O)O1,4,-19,102,104
CC(Oc1ccccc1)C(=O)NCc1ccco1 (configuration not stated),·,-17,85,102
CCS(=O)(=O)N(CC(=O)Nc1sc(C)c(C)c1C(N)=O)Cc1ccc(F)cc1,16,-31,102,102
CC(O)(c1ccccc1)C(C)(O)c1ccccc1 (configuration not stated),·,-6,111,105
CC(C(=O)NCc1ccccc1)n1cc(S(=O)(=O)N2CCCC2)ccc1=O (configuration not stated),-9,-14,105,97
COC(=O)c1c(N)sc2c1CCC2,12,·,94,102
Cc1ccc(-n2c(O)c(C=NCCN3CCOCC3)c3ccccc3c2=O)cc1C,-14,-23,108,105
Cc1nc2ccccn2c1C(=O)c1ccccc1,9,-40,102,100
O=C(Nc1ccc(-c2nnc3n2CCCCC3)cc1)c1ccccc1F,5,-23,107,106
COc1ccc(C(F)(F)F)cc1NC(=O)c1nc2nc(C)cc(C(F)F)n2n1,73,-20,101,102
Cc1cc(C)c2c(/N=N/N3CCCCCC3)[nH]nc2n1,1,-21,105,101
CCC(=O)N1CCc2cc(S(=O)(=O)NC(C)C)ccc21,0,-14,103,103
COc1cc(OC)c(NC(=O)Nc2noc3c2COc2ccccc2-3)cc1Cl,-22,-13,102,103
Cc1onc(-c2ccccc2Cl)c1C(=O)NC(=S)N1CCCc2ccccc21,37,-19,102,99
COC(=O)CN1C=C(C(=O)OC)C(c2ccc(F)cc2)C(C(=O)OC)=C1,115,-4,105,104
O=C(COC(=O)c1n[nH]c2ccccc12)NCc1ccccc1,34,·,91,102
O=C(OC1CCCCC1=O)c1ccc2c(c1)OCCO2 (configuration not stated),-3,-17,102,103
Cc1cc([S-])c2n(cn[n+]2Cc2ccc(Cl)cc2Cl)n1,·,-27,108,107
CCc1nn(CC(=O)NCC2CCCO2)c(=O)c2cc3c(OC)cccc3n12 (configuration not stated),39,-15,103,104
CCN(CC)S(=O)(=O)c1cccc2nsnc12,19,-40,101,102
Cn1c2ccccc2c2[nH]c3ccccc3c21,i,-99,103,101
CCN=C1NN=C(c2ccc(NC(=O)CC)cc2)CS1,41,-31,148,136
FC(F)(F)CNCc1ccco1,13,-15,108,103
Cc1[nH]nc(-c2ccc(O)cc2O)c1Oc1ccc(F)cc1,-18,-15,99,101
CNc1nc(-c2ccc3c(c2)CCN3C(=O)C(C)C)cs1,14,35*,99,103
CC(C)CC(NC(=O)C1CCC(C)CC1)C(=O)O (configuration not stated),-6,-65,103,101
Cc1cc2c(cc1S(=O)(=O)N1CCc3ccccc31)OCC(=O)N2,-1,-21,107,102
O=C1/C(=C\NCc2ccccc2)S(=O)(=O)N(Cc2ccc(Cl)cc2)c2ccccc21,-1,-82,98,101
CC(=O)N(Cc1ccccc1)Cc1cn(-c2ccccc2)nc1-c1cccs1,-10,-20,101,99
Cc1nsc2c1ccc1sccc12,29,9,101,100
Oc1ccccc1-c1cc(-c2ccc3c(c2)OCCO3)n[nH]1,0,·,109,106
Cc1cc(OC(C)C(=O)NCC2CCCO2)cc(C)c1Cl (configuration not stated),-2,-5,103,101
O=C1c2ccccc2NC(c2ccccn2)N1CCCN1CCOCC1 (configuration not stated),40,-21,94,100
CCOC(=O)Nc1ccc2c(COC(=O)c3cccn3C)cc(=O)oc2c1,-57,-11,96,102
CCOC(=O)C(Nc1cccc(CO)c1)c1ccccc1 (configuration not stated),8,-6,109,107
CCC12CN3CCN(CC(C3)/C1=N\NC(=O)Nc1ccccc1)C2,-3,-2,100,102
O=C(CCn1nc(-c2ccc(Cl)cc2)ccc1=O)NCc1cccnc1,20,0,103,102
CCN(CC)CCCN,-2,1,103,100
CC(=O)NCCSc1nc(-c2cccs2)cc(-c2ccc(F)cc2)c1C#N,110,-11,107,103
CCN(C(=O)Cc1ccc(Cl)cc1)c1ccccc1,-1,-22,103,103
c1ccc2c(c1)COC(CNC1CCCCC1)OC2,·,-7,113,110
CC1CCCCC1NC(=O)CSCC(=O)O (configuration not stated),-3,7,104,99
CCCn1c2ccccc2c2cnn(CC(=O)NC3CCCC3)c(=O)c21,-32,-3,102,102
COc1ccc(-c2cc(C(F)(F)F)nc(SCC(=O)N3CC4(C)CC3CC(C)(C)C4)n2)cc1 (configuration not stated),-7,-9,103,101
O=C(c1ccco1)N1N=C(c2ccccc2)CC1c1cc2cc3c(cc2nc1Cl)OCCO3 (configuration not stated),108,-7,101,97
C/C(=N\O)C(=O)Nc1cccc(C(F)(F)F)c1,1,9,99,107
Cc1cc(C)n(-c2ncc(S(=O)(=O)c3ccc(Cl)cc3)c(N)n2)n1,-7,-33,103,104
Cc1cc(C)c(C#N)c(Sc2ncnc3c2nnn3Cc2ccccc2)n1,-2,-2,102,102
CC(=O)NC1C(=O)N(Cc2ccccc2)c2c(C)ccc(Cl)c21 (configuration not stated),2,-2,105,101
Cc1ccc(C(=O)Nc2nc3ccccc3n3nnnc23)cc1,-6,-22,103,108
COc1ccc(C(=O)NCc2cccnc2)cc1C(=O)NCc1cccnc1,0,-2,101,101
COc1ccc(OC)c(NC(=O)CCn2cnc3ccccc3c2=O)c1,-2,12,102,99
N#Cc1c(N)n[nH]c1CCCNC(=O)C1c2ccccc2Oc2ccccc21,0,8,108,102
O=C(CCN1C(=O)S/C(=C\c2cccs2)C1=O)Nc1nccs1,-5,-22,107,106

Later entries:
SMILES,Mtb MbtI inh,Mtb MenB inh,Polio RdRp inh intensity,Polio RdRp inh
Cc1cc(/C=N/N2CCN(C)CC2)c(C)n1CC(F)(F)F,3,-21,116,106
O=C(CCc1nc2ccccc2s1)N1CCc2ccccc21,-3,-17,98,105
CCCN1CCC(NC2CCCc3ccccc32)CC1 (configuration not stated),-19,-20,104,99
CCN(Cc1ccccc1)C(=O)c1nc(-c2ccc(Cl)cc2)n2c1CCCCC2,-12,-39,107,104
CC(C)(C)c1ccc(OCc2ccc(-c3nnco3)cc2)cc1,0,·,104,101
Nc1nonc1/C(=N/O)N1CCCCC1,·,11,108,100
COc1ccc2nc(NC(=O)CN3CC4CC(C3)c3cccc(=O)n3C4)sc2c1 (configuration not stated),16,8,102,100
C=Cn1cc[n+](CC(=O)c2ccc(OC)cc2)c1,-1,27,104,101
CCN(CC)c1ccc(CNC(CC(=O)O)c2cccs2)cc1 (configuration not stated),-24,3,105,101
CN1CCN(C(=O)C23CC4CC(CC(C4)C2)C3)CC1,-6,-12,101,107
CCOc1ccc(-c2cc(C(=O)NC(C)c3ccc4c(c3)OCCO4)[nH]n2)cc1 (configuration not stated),-7,-22,101,102
COc1ccc(CCN2CNC(=S)NC2)cc1OC,16,-8,96,98
Cc1nc(-c2ccc(-n3nncc3-c3ccc(Br)cc3)cc2)cs1,17,-11,92,102
O=C(O)c1ccccc1C(=O)c1ccc(Br)cc1,·,5,105,101
COc1cc2ncnc(SCC(=O)NN)c2cc1OC,-1,-6,105,107
CC(Oc1ccc(C=C2C(=O)c3ccccc3C2=O)cc1)C(=O)O (configuration not stated),8,-81,105,104
COc1ccc(Br)cc1/C=N/c1ncn[nH]1,-5,8,103,99
CCN1CCCC1CNCC(=O)NC1(C)C2CCC(C2)C1(C)C (configuration not stated),-5,-13,105,101
Cc1cc(C)c(NC(=O)C(C)OC(=O)c2nccnc2N)c(C)c1 (configuration not stated),23,-24,107,106
Cc1cccc(C2CC(=O)Nc3c2c(=O)n(C)c(=O)n3C)c1 (configuration not stated),16,11,96,99
CCCC(C#N)c1ccc(Cl)cc1Cl (configuration not stated),-7,·,102,103
Cc1ccsc1CNCC(O)c1ccccc1 (configuration not stated),-8,19,102,99
COc1cc(NC(=O)NC2(c3ccccc3)CC2)c(OC)cc1Cl,·,-8,111,109
Cn1ccnc1Sc1cnc(SCC(=O)c2ccc(Cl)cc2)nc1-c1ccccc1,-6,-34,110,106
O=C1NC(=O)C(C(CC(=O)c2ccccc2)c2ccccc2Br)C(=O)N1 (configuration not stated),·,-19,109,106
Nc1c(C(=O)NCc2ccco2)c2nc3ccccc3nc2n1CCc1ccccc1F,103,-26,·,·
COc1ccccc1-[n+]1cc([O-])on1,1,·,106,102
CC(C)c1ccc(NC(=O)C2=NNC(=O)CC2)cc1,0,-26,91,100
O=C(CCCN1CCC2(CC1)C(=O)NCN2c1ccccc1)c1ccc(F)cc1,-13&-15,-2&4,101&101,98&101
CC1=CC(=C2C(=O)NC(=S)NC2=O)C=C(C(F)(F)F)N1CCN(C)C,14,-119,103,101
COC(=O)c1ccc(N2C(=O)C(C)SC2c2ccccc2)cc1 (configuration not stated),·,-6,97,101
COC(=O)C1=CN(C(C)C)C=C(C(=O)OC)C1c1cccc(Br)c1,-131,-9,101,100
CC(C)(C)c1cc2c(c(C(C)(C)C)c1)OCN(CC(=O)O)C2,-4,-68,107,104
COc1cc(-c2nnc(COC(=O)[C@@H](NS(=O)(=O)c3ccccc3)C(C)C)o2)cc(OC)c1OC,-9,-23,107,105
CC(NC(=O)CSc1nc(N)cc(=O)[nH]1)c1ccccc1 (configuration not stated),-8,-14,107,104
OCc1ccc(OCCOCCOc2ccc(Cl)c3cccnc23)cc1,-318,-16,101,100
COc1ccc(/C=C2\SC(=O)N(CCNC(=O)C3CC(=O)N(c4ccc5c(c4)OCCO5)C3)C2=O)cc1OC (configuration not stated),4,-35,99,101
CCc1c(C)sc2[nH]c(=S)n(CC)c(=O)c12,60,-30,88,100
O=C(O)c1ccccc1N=Cc1ccco1,·,-7,97,98
CCN1C(=O)/C(=C\c2ccccc2)SC1=S,-4,-29,103,103
Nc1nonc1NC(=O)CSc1ccc(Cl)cc1,·,1,94,96
COC(=O)NCc1cc2cc(Cl)ccc2[nH]1,-7,5,102,101
CC1(C)NC(=O)N(CN2C(=O)NC(C)(C)C2=O)C1=O,-3,6,101,101
c1ccc(CCNc2ncnc3scc(-c4ccccc4)c23)cc1,1,-1,106,110
S=c1oc2ccccc2n1CN1CCN(c2ccccn2)CC1,44,-38,104,101
Nc1ncnc2nc(SCc3nc4ccccc4n3Cc3ccccc3)[nH]c12,·,-15,158,134

An excerpt from above, reduced to Polio RdRp inh intensity and Mtb MbtI inh:
| Molecule | Polio RdRp inh intensity | Mtb MbtI inh |
| --- | --- | --- |
| S=c1oc2ccccc2n1CN1CCN(c2ccccn2)CC1 | 104 | 44 |
| OCc1ccc(OCCOCCOc2ccc(Cl)c3cccnc23)cc1 | 101 | -318 |
| CC(C)(C)c1cc2c(c(C(C)(C)C)c1)OCN(CC(=O)O)C2 | 107 | -4 |
| COc1ccc(/C=C2\SC(=O)N(CCNC(=O)C3CC(=O)N(c4ccc5c(c4)OCCO5)C3)C2=O)cc1OC (configuration not stated) | 99 | 4 |

The order is random; overall some 1.8% were active at least once.
